Screening results as filed in PubChem.
AF4-AF9 inh: inhibitors of AF4 peptide binding to AF9, primary screen, biochemical, AlphaScreen, biotin-AF4 peptide, FLAG-AF9, single point; inhibition, % at 10 µM; 350,000 tested, 0.47% active; AID 651704, 2012; Protein AF-9 (Homo sapiens), P42568;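 active means every replicate reaching a set inhibition limit, whatever the replicate mean, cut at about 25% in these data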;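 further: 0% = plate neutral control median and 100% = total signal loss; the record names both 10 and 1 µM as test concentration; the first replicate is given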
Target sequence (P42568 whole entry, looked up): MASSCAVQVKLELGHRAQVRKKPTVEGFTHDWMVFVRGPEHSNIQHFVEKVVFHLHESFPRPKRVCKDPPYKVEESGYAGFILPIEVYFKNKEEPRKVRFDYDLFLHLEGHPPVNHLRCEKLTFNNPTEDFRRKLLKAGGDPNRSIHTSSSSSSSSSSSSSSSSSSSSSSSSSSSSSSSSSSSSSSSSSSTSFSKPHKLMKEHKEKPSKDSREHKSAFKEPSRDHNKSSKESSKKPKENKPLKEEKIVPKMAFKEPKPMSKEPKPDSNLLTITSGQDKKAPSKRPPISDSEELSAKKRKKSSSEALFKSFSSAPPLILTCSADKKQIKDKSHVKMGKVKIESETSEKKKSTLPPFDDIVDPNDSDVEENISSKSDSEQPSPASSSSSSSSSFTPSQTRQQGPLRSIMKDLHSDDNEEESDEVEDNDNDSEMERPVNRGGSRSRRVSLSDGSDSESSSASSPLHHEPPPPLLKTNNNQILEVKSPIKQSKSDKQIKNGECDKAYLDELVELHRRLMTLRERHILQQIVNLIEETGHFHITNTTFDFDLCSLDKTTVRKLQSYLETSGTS
FGF22 binding: binders of human FGF22 protein, primary screen, FGF22 synaptogenesis inhibitor project, biophysical, thermal shift, single point; Fibroblast growth factor 22 (Homo sapiens), Q9HCT0; recombinant FGF22 thermal shift, SYPRO orange fluorescence; percent of sucrose octasulfate shift, DMSO zero; 340,000 tested, 1.5% active; AID 651658, 2012; calls only at 9.99 µM;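 active means melting point raised past a set limit in the mean and every replicate; three in four hits are not shown here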
Target sequence (Q9HCT0 whole entry, looked up): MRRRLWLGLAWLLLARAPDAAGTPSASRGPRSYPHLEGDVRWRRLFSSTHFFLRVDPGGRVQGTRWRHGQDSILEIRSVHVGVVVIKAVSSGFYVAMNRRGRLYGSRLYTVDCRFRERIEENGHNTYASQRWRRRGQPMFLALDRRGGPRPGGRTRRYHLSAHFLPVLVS
rRNA inh HTS: reduced GFP signal of wild-type E. coli, primary screen, bacterial rRNA inhibitor project, GFP/RFP fluorescence, OD600, single point; 350,000 tested, 1.6% active; GFP signal change (wild-type ribosome), % (no concentration beside the values); AID 720706, 2013; E. coli WT GFP vs humanized-ribosome RFP mutants, 24 h; active compounds read low; DMSO median 0, no signal -100;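 active means significant combined selectivity score with lowered wild-type GFP, culture density cut under 30%, mutant RFP and density less affected; inactive means any of these conditions unmet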; further: one replicate is shown; some compounds called inactive have numbers as strong as hits
rRNA inh HTS OD600: second read-out of rRNA inh HTS, no call of its own (marks repeat the call); OD600 change, %; measured here: OD600 growth;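 optical density of the mix in the first replicate; 0 = DMSO median and -100 = no signal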
rRNA inh HTS RFP: further read-out of rRNA inh HTS, marked with its call; RFP signal change, %; measured here: RFP humanized mutant strains;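 first replicate; 0 = DMSO median and -100 = no signal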
Starred values were filed as active, the others as inactive; & = joins results of further samples.

Results for C[C@@H]1CN([C@@H](C)CO)S(=O)(=O)c2ccc(C3=CCCC3)cc2O[C@H]1CN(C)C(=O)c1ccncc1 ?
AF4-AF9 inh: -1.1; FGF22 binding: inactive; rRNA inh HTS: 3; rRNA inh HTS OD600: 12; rRNA inh HTS RFP: 1.8

What do the screens show for `Cc1cccc(S(=O)(=O)N2C[C@@H]3[C@H](c4ccccc42)[C@H](CO)N3Cc2ccc3c(c2)OCO3)c1`?
AF4-AF9 inh: 2.2; FGF22 binding: inactive; rRNA inh HTS: -19; rRNA inh HTS OD600: -33; rRNA inh HTS RFP: -1.8

Results for C[C@@H]1CN([C@H](C)CO)S(=O)(=O)c2ccc(-c3ccccc3)cc2O[C@@H]1CN(C)Cc1ccncc1 ?
AF4-AF9 inh: 4.4; FGF22 binding: inactive; rRNA inh HTS: -27; rRNA inh HTS OD600: -48; rRNA inh HTS RFP: 8.7

What do the screens show for `CC(=NO)C1(C)CC=CCC1CO` (centres undefined)?
AF4-AF9 inh: -1.2; FGF22 binding: inactive; rRNA inh HTS: 8; rRNA inh HTS OD600: 12; rRNA inh HTS RFP: 0.8

What do the screens show for `C[C@H]1CN([C@@H](C)CO)C(=O)Cc2cc(NS(=O)(=O)c3cccs3)ccc2O[C@H]1CN(C)Cc1ccc(Oc2ccccc2)cc1`?
AF4-AF9 inh: 1.2; FGF22 binding: inactive; rRNA inh HTS: 4; rRNA inh HTS OD600: 9; rRNA inh HTS RFP: 1.3

Results for CC(Cc1ccccc1)N(C)C(=O)CN1C(=O)c2ccccc2C1=O (centres undefined) ?
AF4-AF9 inh: 1.2; FGF22 binding: inactive; rRNA inh HTS: 3; rRNA inh HTS OD600: 2; rRNA inh HTS RFP: 1.4

How did COc1ccc(S(=O)(=O)Nc2ccc3c(c2)CC(=O)N([C@H](C)CO)C[C@@H](C)[C@H](CN(C)S(=O)(=O)c2ccc(C)cc2)O3)cc1 do in these assays?
AF4-AF9 inh: -1.5; FGF22 binding: inactive; rRNA inh HTS: 0; rRNA inh HTS OD600: 4; rRNA inh HTS RFP: -1.8

What do the screens show for `O=C(c1ccc2c(c1)OCO2)N1C[C@H]2[C@@H](c3ccccc31)[C@@H](CO)N2C(=O)CC1CC1`?
AF4-AF9 inh: -6.8; FGF22 binding: inactive; rRNA inh HTS: 2; rRNA inh HTS OD600: -8; rRNA inh HTS RFP: -0.5

Results for CCC(=O)N(C)C[C@H]1Oc2ncc(-c3ccc(C)cc3)cc2C(=O)N([C@@H](C)CO)C[C@@H]1C ?
AF4-AF9 inh: -9.8; FGF22 binding: inactive; rRNA inh HTS: 5; rRNA inh HTS OD600: 12; rRNA inh HTS RFP: -0.3

Results for O=C(O)C[C@H]1C[C@@H]2c3cc(NS(=O)(=O)c4ccc(F)cc4)ccc3O[C@@H]2[C@H](CO)O1 ?
AF4-AF9 inh: -4.3; FGF22 binding: inactive; rRNA inh HTS: 1; rRNA inh HTS OD600: 5; rRNA inh HTS RFP: -1.3

How did O=C(C[C@@H]1C=C[C@@H](NC(=O)Nc2cccc(F)c2)[C@@H](CO)O1)NCC1CCCCC1 do in these assays?
AF4-AF9 inh: 0.2&-5.7; FGF22 binding: inactive; rRNA inh HTS: -2&7; rRNA inh HTS OD600: 4&-1; rRNA inh HTS RFP: -0.6&0.0

What do the screens show for `COc1ccc(-c2cn(CC[C@@H]3CC[C@H](NC(=O)c4cnccn4)[C@H](CO)O3)nn2)cc1`?
AF4-AF9 inh: 0.2; FGF22 binding: inactive; rRNA inh HTS: 2; rRNA inh HTS OD600: 7; rRNA inh HTS RFP: -0.6

Results for Cc1ccc(S(=O)(=O)N[C@H]2CC[C@@H](CCn3cc(-c4ccccc4F)nn3)O[C@H]2CO)cc1 ?
AF4-AF9 inh: -0.5; FGF22 binding: inactive; rRNA inh HTS: -6; rRNA inh HTS OD600: -13; rRNA inh HTS RFP: 0.9

Results for Cc1noc(C)c1NC(=O)NCC[C@H]1CC[C@H](NC(=O)c2ccncc2)[C@@H](CO)O1 ?
AF4-AF9 inh: 6.0; FGF22 binding: inactive; rRNA inh HTS: 0; rRNA inh HTS OD600: 1; rRNA inh HTS RFP: -1.6

Results for CO[C@H]1CN(C)C(=O)c2cc(NC(C)=O)ccc2OC[C@@H](C)N(C(=O)c2ccccc2F)C[C@@H]1C ?
AF4-AF9 inh: 1.9; FGF22 binding: inactive; rRNA inh HTS: 1; rRNA inh HTS OD600: -5; rRNA inh HTS RFP: -0.9

What do the screens show for `O=C(c1ccncc1)N1C[C@H]2[C@@H](c3ccccc31)[C@H](CO)N2C(=O)c1ccccn1`?
AF4-AF9 inh: -0.6; FGF22 binding: inactive; rRNA inh HTS: -1; rRNA inh HTS OD600: -13; rRNA inh HTS RFP: -4.0

What do the screens show for `CNc1cncc(-c2cccc(OC)c2F)n1`?
AF4-AF9 inh: -4.1; FGF22 binding: inactive; rRNA inh HTS: 6; rRNA inh HTS OD600: -3; rRNA inh HTS RFP: -1.1

Results for CCN(C(=O)CN1C(=O)NC2(CCCC2)C1=O)c1nc2c(C)cccc2s1 ?
AF4-AF9 inh: 0.3; FGF22 binding: inactive; rRNA inh HTS: -31; rRNA inh HTS OD600: -47; rRNA inh HTS RFP: -7.0

What do the screens show for `CN(C)C(=O)C[C@@H]1C[C@H]2c3cc(NC(=O)Nc4ccccc4F)ccc3O[C@H]2[C@@H](CO)O1`?
AF4-AF9 inh: -3.2; FGF22 binding: inactive; rRNA inh HTS: 3; rRNA inh HTS OD600: 6; rRNA inh HTS RFP: -0.7

How did CC(C)NC(=O)N(C)C[C@H]1Oc2cc(C3=CCCCC3)ccc2S(=O)(=O)N([C@@H](C)CO)C[C@H]1C do in these assays?
AF4-AF9 inh: 2.3; FGF22 binding: inactive; rRNA inh HTS: -4; rRNA inh HTS OD600: -12; rRNA inh HTS RFP: -2.7

A section from the list above:
Results for CO[C@H]1CN(C)C(=O)c2cc(NC(C)=O)ccc2OC[C@@H](C)N(C(=O)c2ccccc2F)C[C@@H]1C ?
AF4-AF9 inh: 1.9; FGF22 binding: inactive; rRNA inh HTS: 1; rRNA inh HTS OD600: -5; rRNA inh HTS RFP: -0.9

What do the screens show for `O=C(c1ccncc1)N1C[C@H]2[C@@H](c3ccccc31)[C@H](CO)N2C(=O)c1ccccn1`?
AF4-AF9 inh: -0.6; FGF22 binding: inactive; rRNA inh HTS: -1; rRNA inh HTS OD600: -13; rRNA inh HTS RFP: -4.0

What do the screens show for `CNc1cncc(-c2cccc(OC)c2F)n1`?
AF4-AF9 inh: -4.1; FGF22 binding: inactive; rRNA inh HTS: 6; rRNA inh HTS OD600: -3; rRNA inh HTS RFP: -1.1

Results for CCN(C(=O)CN1C(=O)NC2(CCCC2)C1=O)c1nc2c(C)cccc2s1 ?
AF4-AF9 inh: 0.3; FGF22 binding: inactive; rRNA inh HTS: -31; rRNA inh HTS OD600: -47; rRNA inh HTS RFP: -7.0

What do the screens show for `CN(C)C(=O)C[C@@H]1C[C@H]2c3cc(NC(=O)Nc4ccccc4F)ccc3O[C@H]2[C@@H](CO)O1`?
AF4-AF9 inh: -3.2; FGF22 binding: inactive; rRNA inh HTS: 3; rRNA inh HTS OD600: 6; rRNA inh HTS RFP: -0.7

How did CC(C)NC(=O)N(C)C[C@H]1Oc2cc(C3=CCCCC3)ccc2S(=O)(=O)N([C@@H](C)CO)C[C@H]1C do in these assays?
AF4-AF9 inh: 2.3; FGF22 binding: inactive; rRNA inh HTS: -4; rRNA inh HTS OD600: -12; rRNA inh HTS RFP: -2.7

The list goes on.
What do the screens show for `C[C@H]1CN([C@@H](C)CO)C(=O)c2cc(C#Cc3ccc(F)cc3)cnc2O[C@@H]1CN(C)C`?
AF4-AF9 inh: 15; FGF22 binding: inactive; rRNA inh HTS: 4; rRNA inh HTS OD600: 9; rRNA inh HTS RFP: 1.0

How did CCOc1ccccc1NCN1C(=O)c2ccccc2C1=O do in these assays?
AF4-AF9 inh: 4.1; FGF22 binding: inactive; rRNA inh HTS: -4; rRNA inh HTS OD600: 5; rRNA inh HTS RFP: -6.8

What do the screens show for `CCCCC[C@@H](C)N1C[C@@H](COCc2ccccc2)Oc2cc(N3CC[C@@H](O)C3)ccc2S1(=O)=O`?
AF4-AF9 inh: 1.8; FGF22 binding: inactive; rRNA inh HTS: 5; rRNA inh HTS OD600: 0; rRNA inh HTS RFP: 5.0

How did C[C@@H]1CN([C@@H](C)CO)C(=O)c2cccc(NS(=O)(=O)c3ccc(F)cc3)c2O[C@@H]1CN(C)Cc1ccc(Cl)c(Cl)c1 do in these assays?
AF4-AF9 inh: 1.0; FGF22 binding: inactive; rRNA inh HTS: -7; rRNA inh HTS OD600: 0; rRNA inh HTS RFP: 3.2

What do the screens show for `COc1ccc(S(=O)(=O)N[C@@H]2CC[C@H](CC(=O)NCCc3ccncc3)O[C@H]2CO)cc1`?
AF4-AF9 inh: -2.1; FGF22 binding: inactive; rRNA inh HTS: 4; rRNA inh HTS OD600: 9; rRNA inh HTS RFP: -0.9

How did CCc1ccc(/C=C2\SC(=S)N(CCCC(=O)NCCCN3CCOCC3)C2=O)cc1 do in these assays?
AF4-AF9 inh: 4.4; FGF22 binding: inactive; rRNA inh HTS: -27*; rRNA inh HTS OD600: -18*; rRNA inh HTS RFP: 2.4*

What do the screens show for `C[C@@H]1CCCCO[C@@H](CN(C)S(=O)(=O)c2cn(C)cn2)[C@@H](C)CN([C@@H](C)CO)C(=O)c2cc(NC(=O)Nc3ccccc3)ccc2O1`?
AF4-AF9 inh: -4.1; FGF22 binding: inactive; rRNA inh HTS: 0; rRNA inh HTS OD600: 8; rRNA inh HTS RFP: -3.9

How did C[C@@H]1CN([C@H](C)CO)C(=O)Cc2cc(NC(=O)Cn3cnnn3)ccc2O[C@H]1CN(C)Cc1ccc(Cl)c(Cl)c1 do in these assays?
AF4-AF9 inh: 0.9; FGF22 binding: inactive; rRNA inh HTS: -6; rRNA inh HTS OD600: -4; rRNA inh HTS RFP: 1.1

How did CCC(=O)N(C)C[C@H]1Oc2ncc(C#CCC(C)C)cc2C(=O)N([C@H](C)CO)C[C@@H]1C do in these assays?
AF4-AF9 inh: -2.8; FGF22 binding: inactive; rRNA inh HTS: 3; rRNA inh HTS OD600: -11; rRNA inh HTS RFP: -3.5

What do the screens show for `CN(C)C(=O)c1cccc(-c2ccc([C@@H]3[C@@H](CO)N(C(=O)C4CCC4)[C@H]3C#N)cc2)c1`?
AF4-AF9 inh: 0.3; FGF22 binding: inactive; rRNA inh HTS: 2; rRNA inh HTS OD600: -2; rRNA inh HTS RFP: 1.1

What do the screens show for `C[C@H]1CN([C@@H](C)CO)C(=O)c2cccc(NC(=O)c3ccncc3)c2O[C@H]1CN(C)CC1CC1`?
AF4-AF9 inh: -2.7; FGF22 binding: inactive; rRNA inh HTS: 4; rRNA inh HTS OD600: 7; rRNA inh HTS RFP: -1.1

What do the screens show for `Cc1ccc(-c2nc3ccc(Br)cn3c2Cc2ccsc2)cc1`?
AF4-AF9 inh: 0.7; FGF22 binding: inactive; rRNA inh HTS: -3; rRNA inh HTS OD600: 19; rRNA inh HTS RFP: 4.4

How did COC(=O)c1ccc(CNC(=O)CC[C@H]2O[C@@H](n3cc(C)c(=O)[nH]c3=O)C[C@@H]2O)cc1 do in these assays?
AF4-AF9 inh: -0.5; FGF22 binding: inactive; rRNA inh HTS: 26; rRNA inh HTS OD600: 12; rRNA inh HTS RFP: 0.6

What do the screens show for `C[C@@H]1CN([C@@H](C)CO)C(=O)c2cccc(NC(=O)c3nc4ccccc4s3)c2O[C@@H]1CN(C)C(=O)Nc1ccc2c(c1)OCO2`?
AF4-AF9 inh: 9.1; FGF22 binding: inactive; rRNA inh HTS: -9; rRNA inh HTS OD600: -16; rRNA inh HTS RFP: 0.2

How did COc1ccc(S(=O)(=O)N(C)C[C@H]2Oc3c(NS(=O)(=O)c4c(C)noc4C)cccc3C(=O)N([C@@H](C)CO)C[C@H]2C)cc1 do in these assays?
AF4-AF9 inh: -1.0; FGF22 binding: inactive; rRNA inh HTS: -5; rRNA inh HTS OD600: -11; rRNA inh HTS RFP: 0.5

What do the screens show for `Cc1ccc(S(=O)(=O)Nc2ccc3c(c2)C(=O)N([C@H](C)CO)C[C@H](C)[C@H](CN(C)C(=O)CCCN(C)C)OCCCC[C@@H](C)O3)cc1`?
AF4-AF9 inh: -2.8; FGF22 binding: inactive; rRNA inh HTS: 6; rRNA inh HTS OD600: 7; rRNA inh HTS RFP: -0.7

How did Cc1ccc(S(=O)(=O)N(C)C[C@@H]2Oc3ccc(NC(=O)Nc4ccc(F)cc4)cc3CC(=O)N([C@@H](C)CO)C[C@H]2C)cc1 do in these assays?
AF4-AF9 inh: 1.7; FGF22 binding: inactive; rRNA inh HTS: -4; rRNA inh HTS OD600: 3; rRNA inh HTS RFP: 1.5

A portion of the library; the hit share may differ from the screen's.
